From PubChem BioAssay
ClpP mod: qHTS Assay for Activators of ClpP. ATP-dependent Clp protease proteolytic subunit (Bacillus subtilis (strain 168)), P80244. purified B. subtilis ClpP, FRET peptide cleavage, 20 min. Potency, µM (highest dose often 57.5 µM), inactives show at the highest dose activity change, negative = active. actives 1.9% (n = 340,000). AID 651965, 2013; active = well fitted falling curve with a large enough effect; inconclusive = small, poorly fitted or top-dose-only effect; inactive = no such curve, though single readings can be large or run the other way; note: potency is the fitted concentration of half-maximal effect; the source files actives as falling curves though it sought activators and does not explain the sign; nearly all actives have a fitted effect of over 65% in size; many hits overshoot -100%
Target sequence (P80244 whole entry, looked up): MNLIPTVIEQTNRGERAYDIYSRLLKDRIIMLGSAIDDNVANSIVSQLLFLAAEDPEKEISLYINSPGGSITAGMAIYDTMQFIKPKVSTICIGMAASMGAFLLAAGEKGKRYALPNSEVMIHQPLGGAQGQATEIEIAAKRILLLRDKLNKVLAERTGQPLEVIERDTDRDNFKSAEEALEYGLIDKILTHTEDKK
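FRET quenching reversal measured ClpP activation: 10 microg/mL B. subtilis ClpP at pH 8 with the FRET-FV decapeptide, read at 430 nm after 320 nm excitation. The 20-min minus 0-min signal was scaled between DMSO/no-enzyme wells and ADEP (5.8 microM final).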
Menin-MLL FL inh: qHTS Assay for Inhibitors Targeting the Menin-MLL Interaction in MLL Related Leukemias: Competition With Fluorescein Labeled MLL-derived Peptide | Fluorescence polarization, fluorescein-MLL peptide displacement from menin | FP activity change, % at 61.4 µM | 290,000 tested, under 10 active; inconclusive = falling polarisation curve, or a change in total fluorescence; inactive = total fluorescence flat and polarisation flat or rising; no compound was filed as active; the % refers to the polarisation; negative = inhibition;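 note: % of control where 0% means no effect; inhibitors lower the polarisation; unlabelled MLL peptide was the positive control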
D2 agonist: Beta-Arrestin HTS for Positive Allosteric Modulators of the Human D2 Dopamine Receptor: Agonists; activation, % (concentration not given with the values); actives 0.084% (n = 360,000); D(2) dopamine receptor (Homo sapiens), P14416; DiscoveRx PathHunter D2 beta-arrestin, luminescence, 90 min; 100% = 57 uM dopamine signal; in the data active = activation above about 40%; inconclusive = about 15% to 40%; inactive = below about 15%; note: compound concentration not given in the record; the text of the record calls up to 30% inactive
Target sequence (P14416 whole entry, looked up): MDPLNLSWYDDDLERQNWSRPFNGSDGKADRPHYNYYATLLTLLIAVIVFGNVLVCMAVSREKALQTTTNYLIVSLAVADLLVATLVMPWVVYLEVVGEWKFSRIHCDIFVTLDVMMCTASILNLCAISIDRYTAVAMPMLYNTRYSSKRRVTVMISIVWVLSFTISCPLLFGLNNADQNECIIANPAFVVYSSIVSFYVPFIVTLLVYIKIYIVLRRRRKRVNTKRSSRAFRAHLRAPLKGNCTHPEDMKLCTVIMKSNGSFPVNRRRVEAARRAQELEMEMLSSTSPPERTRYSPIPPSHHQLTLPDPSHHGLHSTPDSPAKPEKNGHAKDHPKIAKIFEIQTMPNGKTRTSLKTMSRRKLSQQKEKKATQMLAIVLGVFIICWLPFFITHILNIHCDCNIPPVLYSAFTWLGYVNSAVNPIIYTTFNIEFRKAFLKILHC
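DiscoveRx PathHunter D2 beta-arrestin cells (2,100/well) attached overnight, then compound-stimulated 90 min at 37 C in HBSS/10 mM HEPES/0.1% Tween-20 buffer; beta-galactosidase complementation read by luminescence after 1 h at ambient temperature. Dopamine 57 uM final (EC100) as control.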
PINK1 modulator: A Quantitative High throughput Screen to Identify Chemical Modulators of PINK1 Expression; PINK1 immunofluorescence, high-content cytometry, 24 h; Potency, µM (titrated, usually from 76.6 µM), inactives show at the top dose activation (PINK1 increase), hits mostly activators; actives 0.2% (n = 410,000); AID 624263, 2012; active = well fitted activation curve with a large enough effect; inconclusive = small, poorly fitted or top-dose-only effect; inactive = flat fitted curve, though single readings scatter; cell line not stated here;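 note: potency is the fitted concentration of half-maximal effect; % of control where 0% means no effect; nearly all actives have a fitted effect of over 65% in size; a mitochondrial uncoupler was the plate control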
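Compound titrations (5 concentrations, 24 h) on a stable cell line; DMSO and CCCP controls. Endpoint: fixed-cell PINK1 immunofluorescence with mitochondrial, cell and nuclear markers, scanned by microplate cytometer.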
gsp agonist: qHTS for Agonist of gsp, the Etiologic Mutation Responsible for Fibrous Dysplasia/McCune-Albright Syndrome: qHTS | Potency, µM (top dose mostly 76.9 µM), for the others: at the top dose activation (cAMP increase), hits mostly activators | gsp mutant cells, cAMP HTRF, 30 min; control for the full effect not named in the record | AID 624287, 2012 | actives 0.13% (n = 340,000); active = well fitted activation curve with a large enough effect; inconclusive = small, poorly fitted or top-dose-only effect, or another doubt; inactive = no such curve, though single readings can be large or run the other way; cell line not stated here;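 note: phosphodiesterase inhibitor Ro 20-1724 added with compounds to block cAMP breakdown; potency is the fitted concentration of half-maximal effect; nearly all actives have a fitted effect of over 60% in size; about a fifth of the inactives were tested at one dose only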
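Cells in DMEM/10% FBS with G418 were pretreated with compounds in DMSO plus […] (300 uM stock) for 30 min at 37C. cAMP was measured by HTRF (cAMP-d2 plus anti-cAMP antibody-K) after 30 min at room temperature.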
gsp antag: qHTS for Antagonists of gsp, the Etiologic Mutation Responsible for Fibrous Dysplasia/McCune-Albright Syndrome: qHTS | gsp-mutant cells, cAMP HTRF, 30 min; control for the full effect not named in the record | Potency, µM (series often up to 76.9 µM), inactives show at the top dose activity change, negative = inhibition, hits mostly inhibitors | actives 0.4% (n = 340,000) | AID 624288, 2012; active = falling curve of any shape with a large fitted effect; inconclusive = falling curve, mostly with a smaller effect; inactive = flat or rising curve; cell line not stated here;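 note: intracellular cAMP measured with PDE inhibitor Ro 20-1724 present during compound exposure; potency is the fitted concentration of half-maximal effect; % is set by controls: 0 for no effect and ±100 for the full control effect; nearly all actives have a fitted effect of over 65% in size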
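Measurement of cellular cAMP by homogeneous time-resolved fluorescence following a 30 min compound exposure at 37C. The PDE inhibitor […] was present throughout; the assay buffer was DPBS with 0.05% BSA and 0.005% Tween 20.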
Sfp inh: qHTS Assay for Inhibitors of Bacillus subtilis Sfp phosphopantetheinyl transferase (PPTase). 4'-phosphopantetheinyl transferase ffp (Bacillus subtilis), Q9F4F7. Biochemical Sfp PPTase activity, qHTS. Potency, µM, without a hit: max response, negative = inhibition, usual class: inhibitors. actives 3.5% (n = 310,000). AID 1490, 2009; active = well fitted inhibition curve with a large enough effect; inconclusive = small, poorly fitted or top-dose-only effect, or another doubt; inactive = no such curve, though single readings can be large or run the other way;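 note: the enzyme is Sfp with the accession as filed and its product quenches rhodamine fluorescence; potency is the fitted concentration of half-maximal effect; 0% = enzyme reaction without inhibitor and -100% = no enzyme wells; top concentration of the series not given in the record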
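Sfp 15 nM + cpd, 15 min RT; start w/ rhodamine-CoA 5 uM, BHQ-2-YbbR 12.5 uM (final); 50 mM Hepes pH 7.6, 10 mM MgCl2, 0.01% NP-40, 0.01% BSA; read 525/598 nm at 0 and 30 min.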
* marks the source's active call; other numbers are inactive results; ? = inconclusive; nt = not tested or not shown; [ ] = another dose, or the depositor's remark.

Compound	ClpP mod	Menin-MLL FL inh	D2 agonist	PINK1 modulator	gsp agonist	gsp antag	Sfp inh
COc1cc2[nH]c(=S)nc(NCCc3ccc(C)cc3)c2cc1OC	-12%	-1.9	-4.6	-1.3%	16%	-1%	10%
COc1ccc(C2(C)NC(=O)N(CC(=O)N3CCc4ccccc43)C2=O)cc1OC (stereo not drawn)	-0.2%	nt	-2.2	-1.8%	-33%[inhibitor]	3%	nt
O=CNc1cc(-c2ccccc2)cn2c(-c3ccc(F)c(Cl)c3)cnc12	-28%	nt	-4.5	1.7%	nt	nt	nt
Cn1c(=O)c2c(nc(-n3ccnc3)n2Cc2ccccc2)n(C)c1=O	-1.0%	6.8	-11	-1.6%	?	24%	9%
O=C(COC(=O)Cc1ccsc1)NNC(=O)c1ccccc1	-0.4%	nt	1.3	-0.1%	?	3%	nt
CN(C)Cc1ccccc1-c1nccc(NCc2cccs2)n1	nt	1.5	nt	-1.0%	nt	nt	-4%
O=C(COc1ccc2ccc(=O)oc2c1)N1CCN(C(=O)C2COc3ccccc3O2)CC1 (stereo not drawn)	3.3%	-2.3	5.8	0.3%	?	-11%	8%
CN1C(N)=NC(=O)/C1=C/c1ccc(OC(F)(F)F)cc1	-8.9%	-6.5	6.0	1.2%	-105%[inhibitor]	6%	9%
COc1ccccc1OCCCn1cc(C#N)c2ccccc21	-1.0%	-0.1	-4.9	1.5%	?	-6%	-13%
O=C(O)CCCNC(=O)c1cccc(C(=O)NCCCC(=O)O)n1	?	0.2	-1.2	-2.1%	?	8%	-2%
CN(C(=O)COC(=O)c1cc(S(=O)(=O)N2CCOCC2)c(Cl)cc1Cl)C1CCS(=O)(=O)C1 (stereo not drawn)	nt	0.1	-3.4	0.5%	-2%[15.4 µM]	-6%	25%
Cc1nc2cccc(C(=O)Oc3ccc([N+](=O)[O-])cc3)c2o1	-9.4%	-3.7	-4.8	3.7%	-3%[15.4 µM]	0%	-17%
O=C(CSc1nnc(CNC(=O)C23CC4CC(CC(C4)C2)C3)n1-c1ccccc1)Nc1ccc(F)cc1	-2.3%	2.5	-3.1	0.7%	-2%	-17%	9%
FC(F)(F)c1cc(-c2cccs2)n[nH]1	0.3%	1.4	-3.8	-1.3%	8%	6%	15%
O=C(c1c(O)c2ccccc2oc1=O)C1CCC1	-1.6%	-1.5	1.8	2.6%	16%	-6%	14%
CC1CCc2nn(CC(=O)N3CCN(C(=O)c4ccco4)CC3)cc2C1 (stereo not drawn)	2.9%	3.8	-3.3	1.1%	-1%	2%	12%
COc1ccc(NC(=O)/C=N/O)cc1	nt	1.1	6.2	-0.2%	?	3%	6%
C[C@@H]1CN([C@H](C)CO)C(=O)c2c(c3ccccc3n2C)-c2ccccc2CO[C@@H]1CN(C)C(=O)Nc1ccc2c(c1)OCO2	1.3%	nt	-0.5	-0.8%	-8%	nt	nt
CNC(=O)c1ccsc1NC(=O)c1coc2ccccc2c1=O	1.9%	2.2	-4.7	5.1%	0%	-24%	10%
Cc1cnc(NS(=O)(=O)c2ccccc2)c(C)n1	-6.9%	0.9	-8.1	0.0%	4%	13%	24%
O=C(CSc1nnnn1-c1ccccc1)CC(=O)Nc1ccc(Cl)cc1	-6.7%	5.8	-0.7	-0.8%	-3%	-6%	-5%
COc1cccc(C(=O)NN=C2CCCC2)c1	-2.9%	-4.7	0.7	3.8%	?	6%	1%
O=C(Nc1cc(Cl)c(Cl)cc1Cl)c1cccnc1	-0.9%	-2.3	-1.4	-1.8%	-38%[inhibitor]	-2%	24%
Cc1cccc2sc(NC(=O)CCNS(=O)(=O)c3cccs3)nc12	0.1%	5.3	-1.0	-0.4%	20%	?	7%
Cc1nc(NCC2CCCO2)c2nnn(Cc3c(F)cccc3Cl)c2n1 (stereo not drawn)	-0.4%	-2.3	-5.2	3.5%	2%[15.4 µM]	2%	10%

(next part)
Compound	ClpP mod	Menin-MLL FL inh	D2 agonist	PINK1 modulator	gsp agonist	gsp antag	Sfp inh
O=C(Nc1ccc(Cl)cc1)C1c2cccc[n+]2CC(=O)N1Cc1ccc2c(c1)OCO2 (stereo not drawn)	-1.5%	5.5	0.5	0.1%	-6%	-3%	?
CC12C(=O)N(NC(=O)c3ccncc3)C(=O)C1C1C=CC2C1 (stereo not drawn)	-1.2%	1.6	-5.6	1.5%	-81%[inhibitor]	9%	11%
CCCCNc1nc(N)nc(-c2cc(Cl)ccc2O)n1	-8.5%	1.5	0.3	-3.0%	11%	-1%	-9%
O=C(CC12CC3CC(CC(C3)C1)C2)NCc1ccncc1	-2.0%	-0.4	0.7	2.6%[38.3 µM]	8%	12%	14%
N#CCCn1c(=O)cnc2cnc(N3CCOCC3)nc21	nt	?	nt	-0.1%	nt	nt	22%
NC(N)=NC1=NC(=O)C(Cc2ccccc2)S1 (stereo not drawn)	-0.4%	-0.2	-2.3	-1.4%	23%	8%	-16%
Cc1ccc(F)cc1NC(=O)CCNC(=O)c1ccc([N+](=O)[O-])cc1	nt	nt	-3.4	0.3%	27%	8%	12%
CCOc1cc(/C=N\NC(=O)c2ccc(C)nc2)cc([N+](=O)[O-])c1O	-0.6%	-0.7	-5.1	?	-39%[inhibitor]	?	-10%
C#CC(=O)CC1(CN(Cc2ccccc2)C(=O)OC(C)(C)C)CCCCC1	-0.7%	nt	-2.3	0.2%	nt	0%	nt
C=CCSc1nc(-c2ccc3c(c2)OCO3)cc(C(F)(F)F)c1C#N	?	7.2	-3.5	16%	18%	-13%	18µM*
CC1CC(C)CN(CCOCCSc2ccccc2)C1 (stereo not drawn)	0.8%	-0.5	-2.9	-1.9%	0%	1%	-20%
CC(/C=N/NC(=O)Cc1cccs1)=C\c1ccccc1	-0.9%	4.7	1.1	10.0%	?	-3%	-1%
CC(Sc1ccc(Cl)cc1)C(=O)NCc1cccnc1 (stereo not drawn)	-1.0%	-3.1	-3.7	0.4%	-33%[inhibitor]	1%[15.4 µM]	14%
O=C(/C=C/c1cn(-c2ccccc2)nc1-c1ccc2c(c1)OCCO2)NCCCN1CCOCC1	nt	5.1	1.1	-0.1%	14%	-11%	-8%
COc1ccc(CCn2c(C)c(C(C)=O)c(C(C)=O)c2C)cc1OC	-2.0%	2.3	-5.2	1.4%	-11%[15.4 µM]	0%	17%
O=C(Nc1cccc(C(F)(F)F)c1)Nc1nnc([C@@H]2C[C@H](O)[C@@H](CO)O2)s1	0.1%	nt	-1.8	0.1%	nt	nt	nt
CC(C)(C)c1ccc(C(=O)N2CCNC(=O)C2CC(=O)Nc2ccc(F)cc2)cc1 (stereo not drawn)	-3.1%	nt	2.2	0.0%	-12%[15.4 µM]	5%	-5%
O=C1/C(=C/c2ccc(O)cc2)SC(=S)N1Cc1cccnc1	nt	?	-5.9	35µM*	9%[15.4 µM]	-7%	-5%
CCOC(=O)C1CCCN(C(=O)c2ccc(C(F)(F)F)nc2C)CC1 (stereo not drawn)	-1.7%	nt	0.8	2.0%	nt	nt	nt
CCN1CCN(C(=O)C23CCC(C)(C(=O)C2Br)C3(C)C)CC1 (stereo not drawn)	-2.1%	0.1	-5.2	3.4%	?	4%	8%
N#Cc1ccccc1OCC(=O)Nc1cccc(S(=O)(=O)N2CCCC2)c1	-0.1%	nt	-4.8	-0.1%	?	-4%	nt
COC(=O)C1CSC(C(=O)OC)N1C(=O)Nc1ccccc1 (stereo not drawn)	-2.8%	4.6	-0.8	-1.4%	14%	4%	6%
Cc1ccc(NC(=O)c2noc3c2CCc2ccccc2-3)cc1	65%	-0.8	-7.7	3.3%	-28%	14%	-28%
CC(C)(CO)NC12CC3CC(CC(C3)C1)C2	-2.2%	-2.7	-0.7	-1.7%	-44%[inhibitor]	8%	?
CNC(=O)c1cccc2nc3ccccc3nc12	nt	2.2	2.8	29%	18%	?	5%

Next section
Compound	ClpP mod	Menin-MLL FL inh	D2 agonist	PINK1 modulator	gsp agonist	gsp antag	Sfp inh
CC(C)COc1ccc(C(=O)Nc2ccc(NC(=O)c3ccco3)cc2)cc1	nt	nt	-0.9	19%	12%	10%	2%
Cc1cc(C)cc(NC(=O)Cn2ncn3c(cc4ccccc43)c2=O)c1	0.7%	5.9	-2.4	nt	-19%	5%	2%
CC(=O)N1N=C(c2ccccc2)CC1c1ccc2c(c1)OCO2 (stereo not drawn)	0.7%	-1.7	1.3	-0.8%	10%	-13%	5%
Cc1ccn2c(NC(=O)c3cccs3)c(-c3ccccc3)nc2c1	-5.2%	3.9	-1.8	0.2%	3%	-14%	13%
C/C(=C\c1ccc(Br)cc1)C(=O)c1c(C)cc(C)[nH]c1=O	-2.2%	0.2	-0.5	-1.4%	-10%	-12%	-1%
Cc1ccccc1OCC(=O)Nc1ccccc1-c1ccccc1	1.4%	1.6	-6.0	4.1%	27%	-17%	-13%
Nc1cc(=O)nc(SCC(=O)Nc2cccc3ccccc23)n1CCc1ccccc1	-4.4%	3.4	-4.6	-2.7%	11%	-1%	24%
COc1ccc(Nc2cc(C)nc3ncnn23)c(OC)c1	-1.4%	2.3	-0.9	-0.2%	-7%	3%	0%
